High-throughput results deposited in PubChem BioAssay by SRMLSC.
H5N1 antiviral = MDCK cell protection from H5N1 avian flu | cytopathic effect, luminescence, 72 h; active compounds read high; no value below 0 was filed and about half of the inactive calls have no number; reference of the scale not given here | inhibition, % at 50 µM | hit rate 0.07% among 96,000; in the data active means inhibition above about 25%
Numbers without * were called inactive; i = inactive.

SMILES | H5N1 antiviral
CC1CCCN(C(=O)CSc2nnc3n(C4CCCC4)c(=O)c4ccccc4n23)C1 (configuration not stated) | i
COC(=O)Cn1nc(-c2ccccc2)n(-c2ccccc2)c1=S | 0.7
O=S(=O)(Cc1ccccc1)c1cnc2ccccc2n1 | 15.6
Cn1c(=O)[nH]c(=O)c2[nH]c(NCCCN3CCOCC3)nc21 | 0.2
CC(CN1CCOCC1)c1ccccc1 (configuration not stated) | i
COc1ccc(CCn2c(-c3ccco3)nc3ccccc3c2=O)cc1OC | 0.9
COc1ccc(CC(=O)N2CCN(C(=O)c3ccco3)CC2)cc1 | i
Cc1nnc(SCC(=O)Nc2ccc3c(c2)OCCO3)n1CC1CCCO1 (configuration not stated) | i
CC1CN(S(=O)(=O)c2cccs2)CC(C)O1 (configuration not stated) | 1.4
O=C(CC1CCCC1)Nc1ccc2c(c1)CCC2 | 1.2
O=C1CC(=O)CC(c2ccco2)C1 | i
CC1CCC(C(=O)NC(C(=O)N2CCc3ccccc3C2)C(C)C)CC1 (configuration not stated) | i
CCc1nc2ccccc2c(C(=O)OCC(=O)Nc2ccc(S(=O)(=O)N3CCOCC3)cc2)c1C | i
COc1ccc(-c2nnc(SCC(=O)NC(C)c3ccccc3)o2)cc1 (configuration not stated) | 1.3
CN(CC(=O)N1CCN(c2ccc(F)cc2)CC1)S(=O)(=O)c1ccc(F)cc1 | i
COc1ccc2nc(SCC(=O)Nc3ccc(S(=O)(=O)N4CCCC4)cc3)c(C#N)cc2c1 | 1.0
COc1ccc(C2=NN3C(=O)c4c(ccc(OC)c4OC)C3C2)cc1 (configuration not stated) | i
COc1ccc(Cl)cc1NC(=O)CN1C(=O)CCS(=O)(=O)c2ccccc21 | i
Cc1cnn(-c2cc(N/N=C/c3ccc(F)cc3)ncn2)c1 | i
CCC(=O)Nc1cccc(NC(=O)CSc2nnc(C3CC3)n2C)c1 | 0.5
Clc1ccc(Cn2ncc3c(NCc4cccnc4)ncnc32)cc1 | 1.5
NC(=O)C1CCN(C(=O)c2ccc(C(F)(F)F)cc2)CC1 | i
O=C(CCN1CCN(C/C=C/c2ccccc2)CC1)Nc1ccccc1 | i
c1ccc(C(CN2CCOCC2)c2ccccc2)cc1 | 0.1
COc1ccccc1-c1nnc(SCC(=O)O)n1C | i
CN(CC(=O)NCCC1=CCCCC1)S(=O)(=O)c1ccc2c(c1)c(=O)n(C)c(=O)n2C | 1.7
CCOc1ccccc1NC(=O)CSc1nnc(-c2ccccn2)n1Cc1ccco1 | i
CS(=O)(=O)N(Cc1ccccc1)c1ccc(C(=O)NC2CCCCC2O)cc1 (configuration not stated) | 0.8
Cc1ccccc1-n1c(C)nnc1SCC(=O)N1CC(=O)Nc2ccccc21 | i
Cc1cccc(NC(=S)NC2CC3CCC(C2)N3Cc2ccco2)c1 (configuration not stated) | i
COc1ccccc1N1CCN(Cc2nc(N)nc(Nc3ccc(C)c(Cl)c3)n2)CC1 | i
Cc1cc(C)n2nc(SCC(=O)Nc3c(C)n(C)n(-c4ccccc4)c3=O)nc2n1 | 0.2
O=C(O)C1CCN(C(=O)c2scc3c2OCCO3)CC1 | 0.2
CN(C)S(=O)(=O)c1cccc(C(=O)OCC(=O)Nc2sccc2C#N)c1 | 0.3
c1nc(N2CCC3(CC2)OCCO3)c2c3c(sc2n1)CCCC3 | i
O=C(CC(C(=O)N1CCc2ccccc21)n1ccnc1)NCc1ccccc1 (configuration not stated) | i
CCOC(=O)c1sc(/N=C/c2c(O)n(-c3ccccc3)c(=O)[nH]c2=O)c(C#N)c1C | i
C/C(NCC(C)(C)CN(C)C)=C(/C#N)C(=O)NCc1ccccc1 | i
O=C(N1CCOCC1)N1CCC(n2nnc3cc(F)ccc32)CC1 | 0.1
Cn1c(=O)c2c(nc(OCC3COC(C)(C)O3)n2Cc2ccccc2F)n(C)c1=O (configuration not stated) | 0.5
CC(Sc1nc2ccccc2s1)C(=O)N1CCOCC1 (configuration not stated) | i
COC(=O)CNC(=O)/C=C/c1ccc(OC)cc1 | i
CC(C)c1ccccc1NC(=O)c1cccnc1 | i
Cc1ccc(Sc2oc(/C=N/n3cnnc3)cc2Br)cc1 | i
CC1CC(C)CN(C(=O)c2ccc3c(=O)n(Cc4ccc5c(c4)OCO5)c(=S)[nH]c3c2)C1 (configuration not stated) | 0.1
O=C(c1cc2c(s1)CCCCCC2)N1CCC2(CC1)OCCO2 | 1.9
N#CC1=C(C=Nc2ccccc2O)CCC1 | i
CCC(Sc1nc(=O)cc(N)n1-c1cccc(C)c1)C(=O)Nc1cc(C)on1 (configuration not stated) | 0.8
CO/N=C/NC(=O)c1c(OC)ccnc1Oc1ccccc1 | 1.0
CN1CCN(C(=O)N2CCNC2=O)CC1 | 1.4
O=C(Nc1ccc(Cc2ccncc2)cc1)C1CCC(N2C(=O)C3CC=CCC3C2=O)CC1 (configuration not stated) | 0.9
COc1ccc(-c2csc(NC(=O)Cn3nc(C)cc3C)n2)cc1 | i
CCOC(=O)N1CCN(C(=O)CCSCCc2ccncc2)CC1 | 1.4
COc1ccc2c(c1)CCc1c(C(=O)Nc3ccn(Cc4ccc(C)cc4)n3)noc1-2 | i
N#C/C(=C/c1ccc(N2CCOCC2)o1)c1ccc(Cl)cc1 | 0.5
CCN(CC)S(=O)(=O)c1ccc(NC(=O)COc2c(OC)cccc2OC)cc1 | i
Cc1ccc(C)c(N2CCN(S(=O)(=O)c3ccc4[nH]c(=O)c(=O)[nH]c4c3)CC2)c1 | 0.7
c1ccc2[nH]c(-c3nc4ccccc4[nH]3)nc2c1 | i
COc1ccc2nc(C)cc(SCC(=O)NNC(=O)COc3ccccc3)c2c1 | 0.3
COC(=O)C1C(=O)CC(C)(O)C(C(=O)OC)C1/C=C/c1ccccc1 (configuration not stated) | 0.4
The list continues:
SMILES | H5N1 antiviral
O=C(COc1ccc(Cl)cc1Cl)NCCCn1ccnc1 | 0.5
Cc1cnn(-c2cc(N/N=C/c3ccccc3Cl)ncn2)c1 | 4.8
Cc1ccc(CCNC(=O)C2CCCN(S(=O)(=O)c3c(C)noc3/C=C/N(C)C)C2)cc1 (configuration not stated) | 0.6
O=C1CCC(=O)N1CC(=O)N1c2ccccc2Sc2ccccc21 | i
O=C(CN(Cc1ccco1)C(=O)c1ccccc1)Nc1ccc(Cl)c(Cl)c1 | i
COc1cccc(/C=N/n2c(SC)nnc2-c2ccccc2)c1O | i
Cc1cc(C)cc(Oc2nc(C(F)(F)F)nc3ccccc23)c1 | i
COC(=O)c1ccc(N2C(=O)CC(N(C)CCc3ccc(OC)c(OC)c3)C2=O)cc1 (configuration not stated) | 0.7
O=C(Nc1ccccc1-c1ccccc1)C1CCCN(c2ncccn2)C1 (configuration not stated) | i
CCc1nnc(NC(=O)C2CCN(S(=O)(=O)Cc3ccccc3)CC2)s1 | i
COc1ccc(CCNC(=O)C(=O)NCc2ccc(C)cc2)cc1OC | i
Cc1cccc2cc(COC(=O)C(C)(C)C)c(=O)[nH]c12 | i
O=C(Nc1ccon1)c1sc2ccccc2c1Cl | i
COc1ccccc1N1CCN(C(CNC(=O)c2ccc3c(c2)OCO3)c2cccnc2)CC1 (configuration not stated) | 0.3
CCCOC(=O)C1C2C=C[C@]3(CN(CCc4ccccc4)C(=O)[C@H]13)O2 (some centres not stated) | 0.4
O=C1c2ccncc2C(=O)N1Cc1cccc(Cl)c1 | i
COc1ccc(OCC(=O)Nc2ccc3c(c2)nc2n3CCSC2)cc1 | i
O=C(c1ccccc1)c1nc[nH]c1C(=O)Nc1ccccc1 | 0.7
CCOC(=O)c1c(C)[nH]c(C(=O)COC(=O)c2ccccn2)c1C | 0.2
CCS(=O)(=O)N1CCN(C(=O)c2ccco2)CC1 | 0.8
COc1cccc(NC(=O)CC2C(=O)NC3CCCCC3N2C(=O)c2ccc(F)cc2)c1 (configuration not stated) | i
COc1cccc(NC(=O)CSCC(=O)Nc2ccccc2)c1 | i
COc1ccccc1NC(=O)CSc1nnc(Cc2cccn2C)n1CCc1ccccc1 | i
NC(=O)SC/C(=N\S(=O)(=O)c1ccccc1)Nc1ccccc1 | i
CCOc1ccc(NC(=O)CN(C)c2ccc(S(=O)(=O)N(C(C)C)C(C)C)cn2)cc1OCC | i
Cc1ccc(NC(=O)/C(=C/c2cccc([N+](=O)[O-])c2)NC(=O)C2CCCCC2)c(C)c1 | i
O=C(CN1C(=O)C2C3C=CC(C3)C2C1=O)Nc1cccc2c1CCCC2 (configuration not stated) | i
CCOC(=O)C1C(c2cccs2)NC(=O)NC1(O)C(F)(F)F (configuration not stated) | 0.4
CC(C)C(=O)Nc1nnc(Sc2ccc(N(C)C)cc2)s1 | i
CC(C)OC(=O)c1nnn(-c2nonc2N)c1CN1CCc2ccccc2C1 | 0.1
CN1/C(=C/C(=O)C2CCC2)Sc2ccccc21 | i
CC(=O)Cn1c(C(F)(F)F)nc2ccccc21 | i
N#CC1=C(N)C2=C(N3CCCCC3)CCCC2C1(C#N)C#N (configuration not stated) | i
Cc1ccc(C(=O)N2Cc3ccccc3CC2C(=O)O)cc1 (configuration not stated) | i
O=C1CC(C(=O)Nc2ccc(Br)cc2)C2(CCCC2)O1 (configuration not stated) | i
Cc1ccc(Nc2nc3nonc3nc2N(C)C)cc1 | i
Cc1c(C(=O)NCc2cccnc2)oc2ccc(S(=O)(=O)N3CC(C)CC(C)C3)cc12 (configuration not stated) | 0.5
COC(=O)c1sc2cc(C(F)(F)F)cnc2c1-c1cccnc1 | 0.3
COc1cc2cc(Br)cc(Br)c2nc1C | 0.5
Cn1c(-c2cccc(OCc3ccccc3)c2)nc2c1c(=O)[nH]c(=O)n2Cc1ccccc1 | 0.6
O=C(CC1SC(=O)N(c2ccccc2)C1=O)Nc1ccccc1 (configuration not stated) | 0.2
CCCC(=O)Nc1ccc(NC(=O)C23CC4CC(CC(C4)C2)C3)cn1 | 0.2
CCOc1ccc2nc(SCC(=O)NC(=O)NCc3ccco3)sc2c1 | i
COc1cccc2cc(C(=O)N3CCN(c4ncccn4)CC3)c(=O)oc12 | i
CCCCNc1nc(=S)[nH]c2cc(OC)c(OC)cc12 | 0.1
COc1ccc(NC(=O)c2ccc(CN3CCN(c4ccccc4)CC3)cc2)cc1 | i
CC(C)(C)N1CC(c2nc3ccccc3n2CCOc2ccccc2)CC1=O (configuration not stated) | i
Oc1ccc(/C=N/Nc2nccnc2Cl)c(O)c1 | i
COc1cc(C)c(CN2CCCCC2CO)cc1C (configuration not stated) | i
COc1ccccc1OCCSc1ncnc2nc[nH]c12 | i
O=C(Nc1ccccc1-c1ccccc1)c1cccc([N+](=O)[O-])c1 | 2.1
O=C(NC1CCCCC1)N(Cc1cc2cc3c(cc2[nH]c1=O)OCCO3)CC1CCCO1 (configuration not stated) | 0.8
COc1ccc(CCC(=O)N2CCN(S(=O)(=O)c3ccc4ccccc4c3)CC2)cc1 | 3.2
C(#CCN1CCOCC1)COCC#Cc1ccccc1 | i
CCCc1c(O)nc(SC2CC(=O)N(c3cc(OC)ccc3OC)C2=O)[nH]c1=O (configuration not stated) | 0.1
Cc1ccc(CN(Cc2cccnc2)C(=O)CN2C(=O)COc3ccccc32)o1 | i
O=C(CCc1ccc(S(=O)(=O)N2CCOCC2)cc1)OCc1nc2ccccc2s1 | 0.8
O=C(COC(=O)c1ccc(Cl)s1)c1cc2ccccc2o1 | 1.2
CCCn1nnc(NC(=O)c2ccc(Cl)cc2Cl)n1 | 1.4
Cc1cc(=O)[nH]c2cc(Cl)ccc12 | 1.1

19 entries from above, comma-delimited:
SMILES,H5N1 antiviral
COc1cc2cc(Br)cc(Br)c2nc1C,0.5
Cn1c(-c2cccc(OCc3ccccc3)c2)nc2c1c(=O)[nH]c(=O)n2Cc1ccccc1,0.6
O=C(CC1SC(=O)N(c2ccccc2)C1=O)Nc1ccccc1 (configuration not stated),0.2
CCCC(=O)Nc1ccc(NC(=O)C23CC4CC(CC(C4)C2)C3)cn1,0.2
CCOc1ccc2nc(SCC(=O)NC(=O)NCc3ccco3)sc2c1,i
COc1cccc2cc(C(=O)N3CCN(c4ncccn4)CC3)c(=O)oc12,i
CCCCNc1nc(=S)[nH]c2cc(OC)c(OC)cc12,0.1
COc1ccc(NC(=O)c2ccc(CN3CCN(c4ccccc4)CC3)cc2)cc1,i
CC(C)(C)N1CC(c2nc3ccccc3n2CCOc2ccccc2)CC1=O (configuration not stated),i
Oc1ccc(/C=N/Nc2nccnc2Cl)c(O)c1,i
COc1cc(C)c(CN2CCCCC2CO)cc1C (configuration not stated),i
COc1ccccc1OCCSc1ncnc2nc[nH]c12,i
O=C(Nc1ccccc1-c1ccccc1)c1cccc([N+](=O)[O-])c1,2.1
O=C(NC1CCCCC1)N(Cc1cc2cc3c(cc2[nH]c1=O)OCCO3)CC1CCCO1 (configuration not stated),0.8
COc1ccc(CCC(=O)N2CCN(S(=O)(=O)c3ccc4ccccc4c3)CC2)cc1,3.2
C(#CCN1CCOCC1)COCC#Cc1ccccc1,i
CCCc1c(O)nc(SC2CC(=O)N(c3cc(OC)ccc3OC)C2=O)[nH]c1=O (configuration not stated),0.1
Cc1ccc(CN(Cc2cccnc2)C(=O)CN2C(=O)COc3ccccc32)o1,i
O=C(CCc1ccc(S(=O)(=O)N2CCOCC2)cc1)OCc1nc2ccccc2s1,0.8

Additional compounds follow.
SMILES | H5N1 antiviral
CCOC(=O)CSc1nc2ccc(N3CCOCC3)cc2c(=O)n1Cc1ccc2c(c1)OCO2 | 2.1
Cc1occc1C(=O)NCCCCc1ccccc1 | i
Cc1cccc(C2CC(c3ccc(Br)cc3)Nc3nc(N)nn32)c1 (configuration not stated) | i
CCCn1nc(C(=O)N2CC(=O)Nc3ccccc32)c2ccccc2c1=O | i
COc1ccccc1NC(=O)CSc1ncn[nH]1 | 0.7
CCOC(=O)[C@@H]1CCNC[C@@H]1c1ccccc1 | i
C#CCOc1ccc(Br)cc1/C=N/O | i
Cc1ccc(S(=O)(=O)N2CCC[C@H]2C(=O)OC(C)C(=O)Nc2ncc(Cl)cc2Cl)cc1 (some centres not stated) | i
CC(C)C(NS(=O)(=O)c1ccc2c(c1)oc(=O)n2C)C(=O)N1CCN(Cc2ccccc2)CC1 (configuration not stated) | 3.1
CCCC(=O)c1c(C)c2ccccc2n1C | 0.5
CN1CCN(C(=O)c2cc(-c3ccccc3)on2)CC1 | 0.5
COc1ccc(S(=O)(=O)Nc2nc(C(F)(F)F)cs2)cc1 | 0.1

No new results follow: entries from further up.
SMILES | H5N1 antiviral
CN1CCN(C(=O)c2cc(-c3ccccc3)on2)CC1 | 0.5
COc1ccc(S(=O)(=O)Nc2nc(C(F)(F)F)cs2)cc1 | 0.1

A portion of the library; rates above refer to the full screens.
